# Screening results (PubChem BioAssay)
# CtBP-E1A inh: qHTS Assay for Inhibitors of the CtBP/E1A Interaction; CtBP / adenovirus E1A interaction (AlphaScreen); AlphaScreen GST-E1A/His-CtBP binding, 1536-well; active compounds read low; control for the full effect not named in the record; activity change, % (test concentration not listed); hit rate 0.49% among 340,000; in the data active means activity change below about -65%; inconclusive means about -30% to -65%; inactive means above about -30%; further: on the % scale 0 is the no-effect control and ±100 the full control effect
#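 AlphaScreen with 125 nM GST-E1A and 125 nM His-CtBP (5X stocks) in Tris pH 8.0, 300 mM NaCl, BSA, Tween 20, TCEP. Compounds preincubated 2 h at 37 deg C, then glutathione donor/nickel acceptor beads added for 1 h at 37 deg C in dark.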
# PINK1 modulator: A Quantitative High throughput Screen to Identify Chemical Modulators of PINK1 Expression. hit rate 0.2% among 410,000. Potency, µM (titrated, usually from 76.6 µM), for inactives: top-dose activation (PINK1 increase), usual class: activators. PINK1 immunofluorescence, high-content cytometry, 24 h; active = well fitted activation curve with a large enough effect; inconclusive = small, poorly fitted or top-dose-only effect; inactive = flat fitted curve, though single readings scatter; cell line not stated here;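 further: potency means the concentration at half of the fitted maximal effect; % of control where 0% means no effect; nearly all actives have a fitted effect of over 65% in size; a mitochondrial uncoupler was the plate control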
#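 Stable cell line treated 24 h with compounds at 5 concentrations (CCCP controls), then fixed and immunostained for PINK1 plus nuclear and cell stains; PINK1 immunofluorescence quantified by laser-scanning microplate cytometry.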
# D2 ag: Beta-Arrestin HTS for Positive Allosteric Modulators of the Human D2 Dopamine Receptor: Agonists; DiscoveRx PathHunter D2 beta-arrestin, luminescence, 90 min; 100% = 57 uM dopamine signal; D(2) dopamine receptor (Homo sapiens), P14416; hit rate 0.084% among 360,000; activation, % (concentration not given with the values); in the data active = activation above about 40%; inconclusive = about 15% to 40%; inactive = below about 15%; further: compound concentration not given in the record; the text of the record calls up to 30% inactive
# Target sequence (P14416 whole entry, looked up): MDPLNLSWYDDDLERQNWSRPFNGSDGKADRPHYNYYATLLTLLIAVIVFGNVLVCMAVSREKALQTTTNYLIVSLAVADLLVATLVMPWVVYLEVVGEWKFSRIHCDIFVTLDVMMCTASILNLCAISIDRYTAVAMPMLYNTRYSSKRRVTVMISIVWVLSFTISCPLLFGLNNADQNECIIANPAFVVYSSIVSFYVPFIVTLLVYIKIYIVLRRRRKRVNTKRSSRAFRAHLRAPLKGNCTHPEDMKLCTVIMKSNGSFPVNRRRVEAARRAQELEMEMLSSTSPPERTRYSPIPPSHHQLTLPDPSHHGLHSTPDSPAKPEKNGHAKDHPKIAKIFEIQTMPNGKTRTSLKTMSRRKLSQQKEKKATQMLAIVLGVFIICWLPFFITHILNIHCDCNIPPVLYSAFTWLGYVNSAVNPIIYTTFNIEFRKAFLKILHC
#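 Agonist mode: compounds alone added to overnight-plated D2 PathHunter cells for 90 min at 37 C, with 57 uM final dopamine (EC100) defining full response. Beta-arrestin recruitment detected by chemiluminescent reagent, read after 1 h at ambient temperature.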
# D2 potentiator: Beta-Arrestin HTS for Positive Allosteric Modulators of the Human D2 Dopamine Receptor: Potentiators. DiscoveRx D2 beta-arrestin cells, luminescence, 90 min; 100% = 57 uM dopamine signal. potentiation, % (concentration not given with the values). hit rate 0.23% among 360,000; active = potentiation of 50% or more; inconclusive = 30% to 50%; inactive = 30% or less;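 further: compound concentration not given in the record; tested on top of an EC20 dose of dopamine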
#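 D2 cells co-treated with compound plus 50 nM dopamine (EC20) for 90 min at 37 deg C to detect potentiation. Beta-arrestin recruitment was read as enzyme-fragment luminescence after 1 h at ambient temperature. Full response was set by 57 uM dopamine.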
# TRPML1 ag: qHTS for Agonists of the Human Mucolipin Transient Receptor Potential 1 (TRPML1) | Mucolipin-1 (Homo sapiens), Q9GZU1 | TRPML1-expressing cells, Ca2+ dye fluorescence, FDSS; host cell line not named in the record; reference of the full effect not given here | activation, % (test concentration not listed) | hit rate 0.12% among 410,000 | AID 624414, 2012; in the data active = activation above about 50%; inconclusive = about 30% to 50%; inactive = below about 30%; further: 0% is about no effect; the text of the record puts the active cut at 80%
# Target sequence (Q9GZU1 whole entry, looked up): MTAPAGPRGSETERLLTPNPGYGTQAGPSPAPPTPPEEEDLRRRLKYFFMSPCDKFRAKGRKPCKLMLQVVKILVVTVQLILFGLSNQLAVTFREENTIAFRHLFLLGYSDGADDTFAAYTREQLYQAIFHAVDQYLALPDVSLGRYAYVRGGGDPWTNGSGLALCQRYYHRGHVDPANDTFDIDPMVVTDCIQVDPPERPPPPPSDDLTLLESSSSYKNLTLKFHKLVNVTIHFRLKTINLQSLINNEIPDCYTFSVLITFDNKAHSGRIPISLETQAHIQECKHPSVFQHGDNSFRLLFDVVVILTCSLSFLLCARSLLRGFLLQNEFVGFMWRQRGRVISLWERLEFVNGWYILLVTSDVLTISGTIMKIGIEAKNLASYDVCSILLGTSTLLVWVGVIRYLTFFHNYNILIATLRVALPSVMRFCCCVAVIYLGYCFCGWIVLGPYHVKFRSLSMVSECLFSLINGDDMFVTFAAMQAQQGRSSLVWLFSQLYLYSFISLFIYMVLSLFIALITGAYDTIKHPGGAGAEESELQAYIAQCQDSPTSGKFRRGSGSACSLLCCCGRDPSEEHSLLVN
#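 TRPML1-DL cells, Tet-induced overnight (~16 h, 37 degrees C), loaded 45-90 min at room temperature with Ca8 no-wash calcium dye plus quencher. FDSS fluorescence: 10 s baseline, compound pin-transfer, 110 s agonist read, then EC80 54-4 (4uM final) and 110 s antagonist read.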
# Six1-Eya2 blk: qHTS Assay for Inhibitors of the Six1/Eya2 Interaction; AlphaScreen GST-Six1/His-Eya2 binding, biochemical; active compounds read low; control for the full effect not named in the record; activity change, % (no concentration beside the values); hit rate 0.56% among 360,000; AID 651725, 2012; in the data active = activity change below about -65%; inconclusive = about -30% to -65%; inactive = above about -30%; further: on the % scale 0 is the no-effect control and ±100 the full control effect
#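 Six1/Eya2 binding was read as AlphaScreen signal after compounds were pinned into GST-Six1 plus His-tagged Eya2 (5X stock 250/500 nM) in pH 8.0 Tris/NaCl/TCEP buffer, beads added, then incubated 1 h, 37 C, dark.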
# * = called active by the depositor; ? = inconclusive; . = not tested or not shown; [ ] = remark or other dose. Rows are unselected, and some 1.3% of all compounds hit somewhere here.
SMILES,CtBP-E1A inh,PINK1 modulator,D2 ag,D2 potentiator,TRPML1 ag,Six1-Eya2 blk
O=C1CCCc2sc3c(c2N1)CCCCC3,6,7.0%[38.3 µM],-1.4,-1,-0.2,-1
COCc1nnc(NC(=O)CCS(=O)(=O)c2ccccc2)s1,-1,1.6%,-4.1,5,-0.3,3
CS(=O)(=O)N(Cc1ccco1)Cc1ccccc1Cl,7,-0.1%[38.3 µM],-2.2,-8,-0.7,-3
Cc1ccsc1C(=O)N1CCCC(N(C)Cc2ccccc2)C1 (stereo unspecified),8,0.9%,-5.2,-18,-0.5,4
C=CCNC(=S)Nc1sc2c(c1C(=O)OCC)CC(C)(CC)OC2 (stereo unspecified),-1,0.3%,3.6,-3,0.7,1
Cc1ccc(S(=O)(=O)N2CCCC2)cc1[N+](=O)[O-],0,2.4%,-3.2,11,-0.4,11
CC(C)NC(=O)c1ccc(-c2ccccc2C(F)(F)F)o1,6,-0.8%[38.3 µM],-1.1,-16,1.7,1
CN1CCN(c2nc(-c3ccccc3)nc(-c3ccccc3)c2C#N)CC1,-4,0.5%,-2.5,-15,-0.5,2
Cc1ccc(S(=O)(=O)CCC(=O)NCc2ccccc2Cl)cc1,-3,2.1%,-0.6,-2,-0.4,-17
COc1cccc(/C=N/NC(=O)CC(C)O)c1OC/C=C/c1ccccc1 (stereo unspecified),4,-2.5%,-2.6,29,0.9,-1
CCOC(=O)CC1CCCCN1Cc1cn[nH]c1-c1ccc(F)cc1F (stereo unspecified),.,-0.4%,-1.6,-4,1.0,5
O=C(NN1C(=O)C2C3CCC(O3)C2C1=O)c1ccco1 (stereo unspecified),-2,6.0%,-6.2,4,0.6,16
CCCC(c1nnnn1CCc1ccccc1)N1CCN(C2CCCC2)CC1 (stereo unspecified),6,-0.3%,-2.6,-31,0.6,5
O=C(CN(C(=O)C1CSC(=O)C1)c1cccc(F)c1)NCc1ccc2c(c1)OCO2 (stereo unspecified),0,0.8%,-0.5,7,0.0,16
COc1cc(OC)cc(C(=O)N2CCC(C(=O)N3CCOCC3)CC2)c1,-13,1.0%,-0.4,-3,-0.3,0
O=c1[nH]c2ccc(NCc3ccc(OCc4ccccc4Cl)cc3)cc2[nH]1,.,0.3%,2.5,-3,0.2,-1
COc1ccc(CC(=O)Nc2ccccc2C(F)(F)F)cc1S(=O)(=O)N1CCOCC1,2,-0.4%,-2.6,-12,-0.5,7
COC1CCN(Cc2c(C(=O)N3CCN(C4CCCCC4)CC3)nc3ccccn23)CC1,3,1.6%,-0.5,-7,-0.8,0
O=C(CN1CCC(C(=O)c2ccc3c(c2)OCCO3)CC1)NC1CCCC1,1,4.3%[38.3 µM],-0.6,-4,2.8,-2
CC(=O)c1cccc(-n2nnnc2SCC(=O)N2CCCC2)c1,2,2.5%,-4.3,-13,1.7,3
Cc1cc2nc(SCC(=O)Nc3nonc3C)c3c(c2cc1C)CCCC3,0,?,0.0,-7,0.5,1
COc1ccccc1C(=O)N1CCCC(c2nc(-c3cc(OC)c(OC)c(OC)c3)no2)C1 (stereo unspecified),1,0.4%,-0.2,-3,-0.2,-3
COc1ccc2nccnc2c1[N+](=O)[O-],-1,-1.3%,4.0,-1,2.7,-6
O=C(NCc1ccco1)/C(=C/c1ccc(Br)cc1)NC(=O)c1ccco1,7,3.9%,-9.6,-3,-0.5,1
CCCNC(=O)C1CCCN(S(=O)(=O)c2ccc3c(c2)CC(C)N3C(=O)C2CC2)C1 (stereo unspecified),3,1.3%,-13,-6,-1.4,0

# (cont.)
SMILES,CtBP-E1A inh,PINK1 modulator,D2 ag,D2 potentiator,TRPML1 ag,Six1-Eya2 blk
COC(=O)C1OC(OC2CC[C@]3(C)C(CC[C@@]4(C)[C@@H]3CC=C3[C@@H]5CC(C)(C)CC[C@]5(C(=O)OC5OC(CO)C(O)C(O)C5O)CC[C@]34C)C2(C)C)C(O)C(O)C1O[C@H]1OCC(O)C(O)C1O (stereo partly specified),0,6.5%,1.0,-1,-0.3,22
O=C1CNC(=O)N1Cc1ccc(Br)cc1,5,-0.1%,-3.0,1,-1.3,1
CCN(CC)S(=O)(=O)c1cccc(C(=O)Nc2ccc3c(c2)OCO3)c1,?,-0.8%,1.2,-2,-0.8,-27
O=C(Cn1c(=O)cnc2ccccc21)NNC(=O)c1ccccc1Cl,10,0.8%,-2.6,-3,0.1,4
CCCOC(=O)COC(=O)c1ccccc1NC(=O)c1ccccc1,28,-0.3%,-0.9,-2,1.8,17
Cc1cc(Cl)nc(-n2nc(C)cc2C)n1,0,0.5%,-9.9,0,0.4,-14
CC(C)(O)[C@H](O)COc1c2ccoc2cc2oc(=O)ccc12,4,1.6%,0.3,-27,-0.2,13
CCCNC(=O)CSc1ccc(S(=O)(=O)N2CCCC2)cn1,9,-1.4%,2.2,-4,-0.4,8
Cc1cc2oc3cc(NCCC4CCCN4C)ccc3c(=O)c2cc1C (stereo unspecified),-10,-1.8%,-2.5,-19,1.0,1
COc1cccc(CNC(=O)c2ccc3nc[nH]c3c2)c1,-12,-0.3%,-0.5,-3,1.1,12
COc1ccc(/C=N/NC(=O)CCc2n[nH]c(=O)[nH]c2=O)cc1OC,-7,0.4%,1.5,-16,0.4,-1
COc1ccc(Cc2c(C3CCCCC3)nc3c(Cl)cc(C(F)(F)F)cn23)c(C)c1,-20,2.1%,.,.,-0.3,2
COC(=O)c1ccccc1N1C(=O)C2C(C1=O)C1C=CC2C12CC2 (stereo unspecified),10,-3.6%[38.3 µM],-1.5,9,0.3,4
CCOc1ccc(C2C(C#N)=C(N)Oc3cc(C)n(CCN(C)C)c(=O)c32)cc1OCC (stereo unspecified),-1,-4.1%,0.2,-15,-0.7,7
CC(=O)C(Cc1ccccc1)NC(=O)COC(=O)c1ccc(-n2cnnn2)cc1 (stereo unspecified),-4,5.2%,-1.1,4,0.7,-10
CS(=O)(=O)N1CCC(Oc2ccccc2C(=O)N2CCNC(=O)C2)CC1,5,1.7%,1.5,1,-0.2,6
COc1cc(OC)cc(OCC(O)Cn2cnc(-c3ccccc3)c2)c1 (stereo unspecified),2,.,0.4,1,1.4,-8
O=C1c2ccccc2C(=O)N1CCc1csc(-c2ccccc2)n1,-7,-3.1%,-2.9,-12,0.2,8
CC(=O)Nc1ccc(/C=C(\C#N)S(=O)(=O)c2ccc(C)cc2)cc1,2,-1.7%,-2.3,-4,0.9,5
CCOc1ccc(C(=O)NCCC(=O)N2CCC3(CC2)NCCc2[nH]cnc23)cc1OCC,-2,0.2%,-4.3,-13,0.0,-4
COc1ccccc1CCNC(=O)Cn1ccc2cc(S(=O)(=O)N3CCC(C)CC3)ccc21,2,2.2%,0.9,-6,-0.3,-3
O=C(/C=C\Nc1ccc(Br)cc1)c1cccnc1,-2,7.0%,0.6,-24,0.5,-7
COc1ccc(NC(=O)CCn2nnc(-c3ccc(C)cc3)n2)cc1OC,-2,3.3%,-3.5,18,-0.2,-12
O=C(CSc1nnc(COc2cccc3cccnc23)o1)N1CCN(C(=O)c2ccco2)CC1,7,1.5%,-2.5,-2,-0.4,12
COc1ccc(CN(C)C(=O)CCNS(=O)(=O)c2ccccc2)c(OC)c1,-2,1.6%,-0.5,-7,-1.1,-3

# Look-ups from the list:
# `CCCNC(=O)CSc1ccc(S(=O)(=O)N2CCCC2)cn1` in D2 potentiator has -4
# `O=C1c2ccccc2C(=O)N1CCc1csc(-c2ccccc2)n1` in TRPML1 ag has 0.2
# `COc1ccccc1CCNC(=O)Cn1ccc2cc(S(=O)(=O)N3CCC(C)CC3)ccc21` in PINK1 modulator has 2.2%

# The list continues:
SMILES,CtBP-E1A inh,PINK1 modulator,D2 ag,D2 potentiator,TRPML1 ag,Six1-Eya2 blk
O=C(c1ccc([N+](=O)[O-])cc1)N1CCSC1c1ccccc1Cl (stereo unspecified),-3,1.1%,2.6,7,2.2,1
CNC(=S)N(CCc1c(C)[nH]c2ccccc12)Cc1ccco1,-4,2.4%,15,0,-0.1,-8
Cc1ccc(C(=O)N2CC(=O)Nc3ccc(F)cc3C2c2ccccc2)cc1[N+](=O)[O-] (stereo unspecified),?,-2.8%,-0.7,12,1.1,?
CC1CCN(C(=O)Cn2c3ccc(F)cc3c3nc4n(c(=O)c32)CCCS4)CC1,.,3.2%,-5.2,-6,1.4,-4
CC(C(N)=O)N1C(=O)c2cccc3cccc1c23 (stereo unspecified),-1,?,1.7,5,0.6,6
CCN1CCN(c2nc3c(C)cccn3c(=O)c2/C=C(\C#N)C(=O)NC)CC1,-4,0.3%,-0.3,1,0.1,5
COc1cc(OC)cc(C(=O)NC(C(=O)Nc2ccc3c(c2)CCC3)C(C)C)c1 (stereo unspecified),.,8.9%,-3.8,-8,-0.8,-10
Nc1cc(Oc2ccc(Cl)cc2Cl)nc(N)n1,-8,-0.4%,-1.2,-5,-0.6,-2
COc1ccc(C(=O)N[C@H](C(=O)N2CCN(c3ccccc3F)CC2)C(C)C)cc1,-1,1.8%,-2.1,-7,0.2,8
CC1(C)Cc2c(cnn2-c2ccccc2)C(NC(=O)CCCN2CCCCC2=O)C1 (stereo unspecified),9,-0.8%,-2.8,-2,-0.5,-6
CCN(CC)CCOc1ccccc1C(C)=O,-19,-0.6%,-5.1,-10,1.7,-8
COc1ccc(CN(C)C(=O)C2CC(=O)N(c3ccc4c(c3)OCCO4)C2)cc1 (stereo unspecified),11,1.2%,3.1,4,-0.7,0
CC(C)(C)C(=O)N1CCN(c2ccc3c(c2)C2CC3CCN2C(=O)OCc2ccccc2)CC1 (stereo unspecified),3,0.4%,3.0,2,-0.4,-5
O=C(NCCCn1ccnc1)c1cc2cc([N+](=O)[O-])ccc2oc1=O,-3,0.5%,-8.7,-2,-0.4,-7
Cc1csc2nc(O)c(C(=O)NCC3CCCO3)c(=O)n12 (stereo unspecified),7,1.7%,-2.7,-5,-0.7,-6

# Six entries from above, arranged by heavy-atom count, low to high:
SMILES,CtBP-E1A inh,PINK1 modulator,D2 ag,D2 potentiator,TRPML1 ag,Six1-Eya2 blk
Nc1cc(Oc2ccc(Cl)cc2Cl)nc(N)n1,-8,-0.4%,-1.2,-5,-0.6,-2
Cc1csc2nc(O)c(C(=O)NCC3CCCO3)c(=O)n12 (stereo unspecified),7,1.7%,-2.7,-5,-0.7,-6
O=C(c1ccc([N+](=O)[O-])cc1)N1CCSC1c1ccccc1Cl (stereo unspecified),-3,1.1%,2.6,7,2.2,1
O=C(NCCCn1ccnc1)c1cc2cc([N+](=O)[O-])ccc2oc1=O,-3,0.5%,-8.7,-2,-0.4,-7
COc1ccc(CN(C)C(=O)C2CC(=O)N(c3ccc4c(c3)OCCO4)C2)cc1 (stereo unspecified),11,1.2%,3.1,4,-0.7,0
CC1(C)Cc2c(cnn2-c2ccccc2)C(NC(=O)CCCN2CCCCC2=O)C1 (stereo unspecified),9,-0.8%,-2.8,-2,-0.5,-6
